# CDC25B CDK2 inh: human CDC25B-CDK2/CyclinA binding inhibition | 0.72% of 94,000 active | HTRF CDC25B-CDK2/CyclinA binding, anti-His/anti-Flag; active compounds read high | AID 1259370 | z-score (no concentration beside the values);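 note: score is relative to mean and SD of negative controls; strong numbers were not always called active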
# HIV TAR-Tat: HIV-1 TAR-Tat binding disruption; HIV-1 TAR RNA, Tat peptide displacement FRET; active compounds read high; z-score (no concentration beside the values); 0.6% of 100,000 active; AID 1259389;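 note: score is relative to mean and SD of negative controls; some compounds called inactive have numbers as strong as hits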
# * = called active by the depositor; nt = not tested or not shown.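 Rule for the calls: active = z-score from 3 up in half or more of its runs; inactive = the rest.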
# Below each SMILES – CDC25B CDK2 inh | HIV TAR-Tat
> N#CC1=C(N)OC2=C(C(=O)CCC2)C1c1ccc(C#N)cc1 (stereo not drawn)
    0.71 | nt
> CC(=O)OCC(=O)c1cc(C(F)(F)F)cc(C(F)(F)F)c1
    -0.96 | nt
> CCOc1ccc2nc(N3CCC(C(=O)N4CCC(C(N)=O)CC4)CC3)sc2c1
    -0.64 | -0.52
> CC(=O)Nc1nonc1-c1nnc(SCC(=O)NC2CCCCC2)n1-c1ccccc1
    -2.5 | -0.87
> O=C(NC1CC1)C1CCCN(c2ncnc3c2nc2n3CCCCC2)C1 (stereo not drawn)
    nt | -2.5
> O=C(NCc1nnc(SCC(=O)N2CCCC2)o1)c1ccco1
    -2.3 | nt
> COc1ccc(CCn2c(C)c3c(C)nn4cc(C)cc4c3c2C)cc1OC
    3.5 | 15*
> O=C(O)CCS(=O)(=O)c1ccc2[nH]c(=O)c(=O)[nH]c2c1
    nt | 1.5
> Cc1ccc(C2CC(=O)C3=C(C2)Nc2ccccc2NC3c2ccc(C)o2)cc1 (stereo not drawn)
    0.08 | -1
> CCCN1C(C(=O)c2ccccc2)=C(OC(=O)C(C)(C)C)c2ccccc2S1(=O)=O
    -0.77 | 1.6
> CCOC(=O)COc1nc(C)cc(C)n1
    nt | 0.58
> O=C(CSc1ccccc1[N+](=O)[O-])NNC(=S)NC1CC2C=CC1C2 (stereo not drawn)
    -1.3 | nt
> O=c1cnc2cc(S(=O)(=O)N3CCCC3)ccc2[nH]1
    -1.2 | -1.1
> CCn1cc(C(CC(=O)O)C(=O)O)c2ccccc21 (stereo not drawn)
    1 | -1.5
> O=C(NC(=S)Nc1ccc(O)c(-c2nc3ccccc3o2)c1)c1ccccc1F
    -3.8 | nt
> CCOc1cc(S(=O)(=O)n2ccnc2C(C)C)ccc1Br
    -0.25 | -0.72
> c1ccc(-c2nsc(-n3ccc(-c4cccs4)n3)n2)cc1
    -0.87 | nt
> CC1CCN(S(=O)(=O)c2ccc(N)cc2)CC1
    nt | 1.4
> Fc1c(F)c(F)c(/C=N/Nc2nc(-c3ccccc3)cc(-c3ccc(Br)cc3)n2)c(F)c1F
    -2.4 | nt
> O=C(Cn1cnc(S(=O)(=O)N2CCCCC2)c1)N1CCCCC1
    nt | 0.42
> CC1Cn2cc(C(=O)Nc3cccc(F)c3)c(=O)c3c(Cl)ccc(c32)O1 (stereo not drawn)
    nt | 1.2
> Cc1c(C(=O)NC2CCCCC2C)oc2ccc(S(=O)(=O)N3CCC(C)CC3)cc12 (stereo not drawn)
    -0.74 | nt
> COc1ccccc1-c1coc2cc(OCc3cc(Cl)cc4c3OCOC4)ccc2c1=O
    0.65 | 0.73
> CC(C)N1C(=O)C(O)(CC(=O)c2ccncc2)c2ccccc21 (stereo not drawn)
    1 | 1.8
> COC(=O)c1ccc([N+](=O)[O-])s1
    -0.64 | nt
> Cc1cccn2c(=O)c(C(=O)NC3CC3)cnc12
    nt | 2
> CC1CCCC(C)N1S(=O)(=O)c1ccc2c(c1)oc(=O)n2C (stereo not drawn)
    -1.8 | -1.6
> Cc1cc(C)cc(Oc2coc3cc(OC(=O)c4cccs4)ccc3c2=O)c1
    0.73 | 0.88
> COC(=O)c1c(NC(=O)c2nc(S(C)(=O)=O)ncc2Cl)sc2c1CCCC2
    -2.8 | -0.04
> CSCCC(NC(=O)c1ccc(C(F)(F)F)cc1)C(=O)NNC(=O)Nc1ccccc1 (stereo not drawn)
    -0.95 | nt
> Cc1nnc(NC(=O)CSc2nc3c(c(=O)n2-c2ccc(Br)cc2)SCC3)s1
    -1.8 | 0.87
> Cc1cc(C)cc(Nc2nc3ccccc3n3cnnc23)c1
    -2.4 | 1.1
> O=C(CS(=O)(=O)c1cccc2nsnc12)N1CCOCC1
    nt | 2.1
> COCCCNC(=S)N/N=C/c1ccc[nH]1
    -0.64 | nt
> CC(C)CCN1C(=O)c2cc3sccc3n2CC1(C)C(=O)NC1CCCCC1C (stereo not drawn)
    -1.9 | 2.8
> CC(C)(C)CC(=O)NCC(c1ccco1)S(=O)(=O)c1ccc(F)cc1 (stereo not drawn)
    nt | 2.4
> COc1cc(C(=O)Nc2ccc3c(c2)OCO3)cc(OC)c1OC
    -0.81 | nt
> COc1ccc(OC)c(NC(=O)c2cnc3scc(C)n3c2=O)c1
    -1.3 | 2.2
> O=C(OCCSc1ccc([N+](=O)[O-])c2nonc12)c1ccccc1
    -1.7 | nt
> COc1ccc(OC)c(-n2nnc(-c3nc(-c4ccccc4C)no3)c2C)c1
    nt | 0.28
> COC(=O)c1cc(S(=O)(=O)N(C)CC(=O)Nc2ccc3c(c2)OCCO3)cn1C
    nt | 0.04
> CN(C)CCNC(=O)N1c2ccccc2Sc2ccccc21
    -0.22 | 2.2
> OC[C@H]1O[C@@H](O[C@H]2[C@H](O)[C@@H](O)[C@@H](O)O[C@@H]2CO)[C@H](O)[C@@H](O)[C@@H]1O
    nt | 1.2
> COCCCNC(=O)c1cccs1
    -1.3 | nt
> COc1ccc2c(c1)c(NC(C)=O)c1n2CC(C)(C(=O)NC2CCCCC2)N(C2CCCC2)C1=O (stereo not drawn)
    nt | 1.8
> O=C(CSc1nc2ccccc2nc1N1CCCC1)NCc1ccco1
    -0.26 | -2.1
> CC1=NN(c2ccccc2)C(=O)/C1=C\c1ccc(-c2cccc([N+](=O)[O-])c2)o1
    -4.8 | nt
> O=C(O)c1c[nH]c2ccc(F)cc2c1=O
    1.2 | 0.03
> COc1ccc(/C=C/c2nc(C#N)c(N(C)C)o2)cc1OC
    -1.3 | 1.2
> CCS(=O)(=O)NCCc1csc2nc(-c3ccc(C)cc3)nn12
    nt | 1.6
> COc1cccc(C2=NS(=O)(=O)c3cc(S(=O)(=O)N4CCOCC4)ccc3N2)c1
    nt | 1.1
> O=S(=O)(c1ccc2nc(Nc3ccc4c(c3)OCO4)ccc2c1)N1CCCC1
    nt | 2
> Cc1cc(-c2ccc(S(=O)(=O)Nc3ccc(Br)cc3F)s2)on1
    nt | 1.9
> Cn1c(=O)n(C)c2cc(N3CCCCC3)c(NC(=O)c3cccs3)cc21
    -1.7 | 2.4
> O=c1[nH]c2ccc(NS(=O)(=O)c3ccc4c(c3)CCCC4)cc2[nH]1
    -0.3 | 0.65
> NC(=O)c1cc(S(=O)(=O)N(CCCN2CCOCC2)Cc2ccco2)cs1
    nt | 0.85
> CCc1cc2c(=O)c(-c3nc4ccccc4s3)coc2c(CN(C)C)c1O
    -2.6 | nt
> O=C(NCc1cccs1)c1cc(-c2ccccc2)oc1C(F)(F)F
    -0.89 | nt
> NC(=O)c1nc(Nc2ccccc2)sc1NC(=O)c1ccc2c(c1)OCO2
    nt | 0.8
> O=C1c2cccnc2C(=O)N1Cc1ccc(S(=O)(=O)Nc2cc(F)ccc2F)cc1
    nt | 0.28

# Continued.
# Below each SMILES – CDC25B CDK2 inh | HIV TAR-Tat
> Cn1nc(C(C)(C)C)cc1C(=O)Nc1ccc(Cl)cc1
    -0.56 | nt
> CCCn1c2ccccc2c2cnn(CC(=O)NCc3ccco3)c(=O)c21
    nt | 1.2
> O=C(Nc1ccccc1)N1CCCC(O)C1 (stereo not drawn)
    -2 | 0.63
> COc1ccc2c(c1)CC(NC(=O)N1CCC(C(N)=O)CC1)CO2 (stereo not drawn)
    nt | 0.34
> Cc1nn2c(-c3ccc4c(c3)OCO4)ccnc2c1-c1ccccc1
    -0.24 | -1.4
> Cn1c(/C=C/C=C/N2CCCC2)nc2ccccc2c1=O
    -2.5 | nt
> Cc1ccc(N2C(=O)SC(Nc3ccc(S(N)(=O)=O)cc3)C2=O)cc1C (stereo not drawn)
    -0.53 | 0.39
> O=c1[nH]c(=O)n(-c2ccc(F)cc2)c2c1CN(CCCc1ccccc1)CN2
    -0.15 | 0.15
> CCn1cc(S(=O)(=O)c2ccc(OC)cc2)c(=O)c2cc(F)c(N3CCOCC3)cc21
    nt | 2.2
> O=C1C2N=NN(Cc3cccc(F)c3)C2C(=O)N1c1ccccc1 (stereo not drawn)
    0.2 | -0.83
> COC(=O)CCCN1C(=O)NC2NC(=O)NC21 (stereo not drawn)
    -2.3 | 0.19
> CCCc1nnc(N2C(=O)c3oc4ccc(F)cc4c(=O)c3C2c2ccccc2)s1 (stereo not drawn)
    0.5 | 1.7
> O=C1CCSc2ccc(S(=O)(=O)Nc3cccc(F)c3)cc2N1
    nt | -0.58
> CCN(C(=O)CCc1nnc2ccc(NCc3ccco3)nn12)c1ccccc1
    nt | 1.9
> CCCCCOC(=O)C1=C(C)NC2=C(C(=O)CCC2)C1c1ccc(O)c(OCC)c1 (stereo not drawn)
    -0.63 | 1.8
> Cc1ccc(C2SCCN2S(C)(=O)=O)cc1 (stereo not drawn)
    0.69 | -0.23
> O=S(=O)(c1ccc(F)cc1)N1CCC(c2nnnn2-c2ccccc2)CC1
    -1.5 | -0.56
> COc1nnc(-c2ccc(C)cc2)c2ccccc12
    -0.12 | -1.6
> CC1=NOC(=O)/C1=C\c1cccs1
    -1.9 | nt
> O=C(c1ncc[nH]1)c1cccs1
    -2 | nt

# Copied from the list:
# `CCn1cc(S(=O)(=O)c2ccc(OC)cc2)c(=O)c2cc(F)c(N3CCOCC3)cc21` in HIV TAR-Tat = 2.2
# `O=C(c1ncc[nH]1)c1cccs1` in CDC25B CDK2 inh = -2

# Continued:
mol,CDC25B CDK2 inh,HIV TAR-Tat
Cc1cc(=O)n2[nH]c(CNc3ccc(F)cc3)nc2n1,-1.4,-1.2
CC(C)(C)C1CCc2c(sc3nc(CCC(=O)NCc4ccccn4)[nH]c(=O)c23)C1 (stereo not drawn),nt,1.2
CN(C)CCNc1cc(-c2cccnc2)nc2ccccc12,-2.9,nt
Cc1c(C(=O)N2CCCCC2)sc(N)c1C#N,-1.2,0.93
COc1ccc(Cl)cc1NC(=O)C1=C(C)C(=O)OC12CCC(C)CC2 (stereo not drawn),-1.4,0.8
CCOc1ccc(NC(=O)Cn2nc3c4sccc4ncn3c2=O)cc1,nt,1.2
COc1ccccc1N1CCN(C2CCCCC2NS(=O)(=O)c2ccccc2)CC1 (stereo not drawn),-2.3,3.1
O=C(CCS(=O)(=O)c1cc2c3c(c1)CCN3C(=O)CC2)N1CCc2ccccc21,nt,1.2
CCOC(=O)c1cnc(N2CCN(c3ccccn3)CC2)c2ccccc12,nt,1.3
CC1=C(c2ccccc2)S(=O)(=O)N=C1N1CCN(c2cccc(C)c2)C(C)C1 (stereo not drawn),-2.8,-0.74
O=C(Cn1ncn2nc(-c3ccccc3)cc2c1=O)NCC1CCCO1 (stereo not drawn),nt,0.45
Cn1c(=O)cc(OCCCC(=O)NCCN2CCN(c3ccccc3F)CC2)c2ccccc21,-0.87,nt
CCOC(=O)c1noc2nc(C)nc(Nc3cccc(Cl)c3)c12,nt,0.79
Cc1ccc(/C(O)=C2\C(=O)C(=O)N(CCC(=O)O)C2c2ccc(C(C)C)cc2)cc1 (stereo not drawn),-0.41,nt
CN(C(=O)CSc1nc(-c2ccccc2)c(C#N)c(=O)[nH]1)C1CCCCC1,-1.6,0.69
COc1ccc(Nc2oc(-c3ccc(OC)cc3)nc2C#N)cc1,0.02,-0.14
CCCc1[nH]nc2c1C(c1ccc(C(=O)OC)cc1)C(C#N)=C(N)O2 (stereo not drawn),-1.5,2
Cn1c(=O)c2cc(C(=O)NC3CCCC3)sc2c2ccccc21,3*,-0.7
O=C(NCc1ccco1)c1c(O)c2ccccc2[nH]c1=O,1,0.5
Clc1cccc(Nc2c3c(nc4nncn24)CCC3)c1,-0.88,-0.78
O=C(O)c1cccc(-c2cccs2)c1,-0.16,nt
COC(=O)CSc1nc2ccc(NC(=O)CSc3nnnn3Cc3ccccc3)cc2s1,-4.2,nt
Cc1cccc(-c2nnn3c2nc(NCc2ccco2)c2cc(Cl)ccc23)c1,-2.1,1.6
C[C@H](c1ccccc1)N1C(=O)CC[C@H]2CC(=O)CC[C@@H]21,-1.5,nt
Cc1nn(C(C)C(=O)NCCc2cccs2)c(=O)c2c1sc1ccccc12 (stereo not drawn),-2.5,2.8
Cc1nc(CC(=O)Nc2sc3c(c2C#N)CCCC3)cs1,-0.05,0.61
O=C(O)C1CCN(c2nc3ccccc3o2)CC1,nt,0.39
CC(Oc1cccc(Cl)c1)n1cncn1 (stereo not drawn),-0.7,0.2
Cc1nn(-c2nc3ccccc3n2C)c2c1C(c1ccc(F)c(Br)c1)CC(=O)N2 (stereo not drawn),nt,0.38
Cc1ccc(S(=O)(=O)Nc2cc(-c3cn4ccc(C)cc4n3)ccc2C)cc1,-2.9,0.69

# Some of these compounds in order of length of the SMILES, high to low:
mol,CDC25B CDK2 inh,HIV TAR-Tat
CC(C)(C)C1CCc2c(sc3nc(CCC(=O)NCc4ccccn4)[nH]c(=O)c23)C1 (stereo not drawn),nt,1.2
COc1ccc(Nc2oc(-c3ccc(OC)cc3)nc2C#N)cc1,0.02,-0.14
CC(Oc1cccc(Cl)c1)n1cncn1 (stereo not drawn),-0.7,0.2

# (listing goes on)
mol,CDC25B CDK2 inh,HIV TAR-Tat
Cc1ccc(CNC(=O)C2CCN(C(=O)c3cc4ccsc4[nH]3)CC2)o1,nt,1.1
CCOC(=O)Cc1csc(NS(=O)(=O)c2cn(C)cn2)n1,-1.5,nt
Cc1nn(C)cc1CN(C)C(=O)c1cc2nc3c(c(C(F)(F)F)n2n1)CCc1ccccc1-3,0.32,nt
O=C(O)C1Cc2c([nH]c3ccccc23)C(c2ccc(Br)cc2)N1 (stereo not drawn),-0.61,-1
FC(F)(F)c1cc(-c2cccs2)nc(-n2cncn2)n1,0.15,nt

# No new results follow: three of the compounds above.
mol,CDC25B CDK2 inh,HIV TAR-Tat
Cc1nn(C)cc1CN(C)C(=O)c1cc2nc3c(c(C(F)(F)F)n2n1)CCc1ccccc1-3,0.32,nt
O=C(O)C1Cc2c([nH]c3ccccc23)C(c2ccc(Br)cc2)N1 (stereo not drawn),-0.61,-1
FC(F)(F)c1cc(-c2cccs2)nc(-n2cncn2)n1,0.15,nt

# Source: PubChem BioAssay
